VACV Venus inh: vaccinia inhibition (Venus reporter); AID 720580; Vaccinia virus Venus reporter expression, fluorescence; actives 0.46% (n = 330,000); Potency, µM (series often up to 36.5 µM), for inactives: at the top dose activity change, negative = inhibition, most hits filed as inhibitors; active means well fitted inhibition curve with a large enough effect; inconclusive means small, poorly fitted or top-dose-only effect; inactive means no such curve, though single readings can be large or run the other way; tested in A549 cells; further: nearly all actives have a fitted effect of over 30% in size; inactives centre near -10
VACV mCherry inh: inhibitors of vaccinia virus infection (mCherry reporter signal) | Vaccinia virus mCherry reporter infection, fluorescence; about a quarter of the inactives have no number | AID 720579 | actives 0.63% (n = 310,000) | Potency, µM (highest dose often 36.5 µM), without a hit: top-dose activity change, negative = inhibition, usual class: inhibitors; active = well fitted inhibition curve with a large enough effect; inconclusive = small, poorly fitted or top-dose-only effect; inactive = no such curve, though single readings can be large or run the other way; tested in A549 cells; further: nearly all actives have a fitted effect of over 35% in size; inactives centre near -10
Numbers without * were called inactive; i = inactive; ? = inconclusive; nt = not tested or not shown; & = joins results of further samples; [ ] = remark or other dose. On the % scale 0 is the no-effect control and ±100 the full control effect; potency means the concentration at half of the fitted maximal effect.

SMILES | VACV Venus inh | VACV mCherry inh
COc1ccc(O)c(C=NCC(C)N=Cc2cc(OC)ccc2O)c1 (stereo not given) | -10% | -23%
COc1ccccc1CNC(=O)CCCn1c(=O)c2ccccc2n(Cc2ccccc2C#N)c1=O | -9% | -8%
Cc1ccc(S(=O)(=O)N[C@H](C(=O)N2CCC(C(=O)N[C@@H](CC(=O)O)C(=O)O)CC2)C(C)C)cc1 | 13% | 7%
CC(=O)c1cc2ccccc2c2ccccc12 | -6% | -11%
CCCCCNCc1ccc(OCc2ccc(Cl)nc2)c(OC)c1 | -16% | -12%
COc1ccc(NC(=O)CSc2nnc(Cn3nnc4ccccc43)n2C)cc1 | -8% | nt
COc1ccc(/C=N/NC(=O)c2ccc(N3CCCC3=O)cc2)cc1 | 6% | i
CC[N+](CC)(CC)c1ccc(/C=C/c2ccc3ccccc3n2)cc1 | i | nt
O=C(CSc1nnc(NC(=O)c2cccc(F)c2)s1)NCc1ccco1 | -5% | -25%
COc1ccc(S(=O)(=O)N2CCC(C(=O)NC3CCCC3)CC2)cc1C | -19% | i
CC(=O)C1=C(O)C(=O)N(Cc2ccccc2)C1c1ccco1 (stereo not given) | -1% | 1%
O=C(Nc1cccc(-c2cn3c(n2)SCC3)c1)c1ccc2c(c1)OCO2 | -2% | -2%
CCC1(c2ccccc2)NC(=O)N(CC(=O)N2CC(=O)Nc3ccccc32)C1=O (stereo not given) | -20% | -9%
Clc1cc2c(cc1/C=N/Nc1nc(N3CCOCC3)nc(N3CCOCC3)n1)OCO2 | -9% | 0%
c1ccc(N2CCOCC2)c(Nc2nc3ccccc3n3cnnc23)c1 | ? | ?
O=S(=O)(c1ccccc1)c1nc(-c2ccco2)oc1N1CCCCC1 | -13% | 6%
O=S(=O)(NCCc1nnc2ccc(SCc3ccccc3Cl)nn12)c1ccccc1 | -17% | -15%
Nc1ccc2c(O)cc(S(=O)(=O)O)cc2c1 | 9% | -14%
Cc1c(Cc2ccccc2)c(=O)oc2cc(OCC(=O)NCC3CCC(C(=O)O)CC3)ccc12 (stereo not given) | -5% | -9%
CCCCNC(=O)c1nc(-c2cccs2)oc1-c1ccc(Cl)cc1 | -2% | i
Cc1cccc(OCC(=O)NC(=S)N2CCCc3ccccc32)c1 | -21% | i
CCOC(=O)CC(NC(=O)c1cc2cc(Br)cc(OC)c2oc1=O)c1ccc(OC)cc1 (stereo not given) | -2% | -2%
CCOC(=O)c1[nH]c2ccc(OC)cc2c1C(SCC(=O)O)c1ccc(C(F)(F)F)cc1 (stereo not given) | -11% | -23%
COc1ccc(NS(=O)(=O)c2cc(NC(=O)c3ccc(C)o3)ccc2N2CCCCC2)cc1 | -27% | -8%
CCN(CC)CCC(=O)NN | -18% | -3%
CCCCn1cc(S(=O)(=O)c2ccc(OC)cc2)c(=O)c2cc(F)c(N3CCOCC3)cc21 | -7% | -13%
CCOC(=O)C1=C(C)NC(=O)NC1C (stereo not given) | -5% | 0%
Cc1ccc(Oc2nc3c(C)cccn3c(=O)c2/C=C(\C#N)C(N)=O)cc1 | -2% | -7%
COc1cccc(-c2ccnc(-n3ncc(C(=O)N(C)CCc4ccccn4)c3C)n2)c1 | -9% | -12%
CSc1nc(N)c2c3c(sc2n1)CN(C)CC3 | -6% | i

Two successive entries out of the list so far:
SMILES | VACV Venus inh | VACV mCherry inh
COc1cccc(-c2ccnc(-n3ncc(C(=O)N(C)CCc4ccccn4)c3C)n2)c1 | -9% | -12%
CSc1nc(N)c2c3c(sc2n1)CN(C)CC3 | -6% | i

Other entries follow:
SMILES | VACV Venus inh | VACV mCherry inh
Cc1ccc2c(c1)S/C(=C/c1ccc[n+](C)c1)N2CCO | -4% | i
Cc1cccc(OCC(=O)N2CCC(N3CCOCC3)CC2)c1 | 0% | -2%
O=C(NCc1cccnc1)NC1(C(F)(F)F)Oc2ccccc2O1 | -23% | ?
CN(CCC1CCOCC1)C(=O)CC1C(=O)NCCN1C/C=C/c1ccccc1 (stereo not given) | -10% | i
CCOCN(C(=O)Cn1c(C)nc2ccccc21)c1c(C)cccc1CC | -7% | -13%
Cc1cc(N2C(=O)Cc3ccccc3C2=O)ccc1C(C)C | -15% | -9%
COc1cccc(N2CCN(C(=O)c3ccc4c(=O)n(CCc5ccccc5)c(=O)[nH]c4c3)CC2)c1 | -14% | -26%
O=C(CSc1ncc2c(n1)-c1ccccc1N(Cc1ccc(F)cc1)S2(=O)=O)c1ccc(Br)cc1 | 2% | -1%
Nc1c(C(=O)Nc2ccccc2Br)sc2nc(-c3cccs3)ccc12 | ? | ?
O=C(/C=C/c1ccc(Cl)cc1)Nc1nc(-c2cccs2)ns1 | -29% | -19%
CCOc1cccc(CN2CCCC(CCC(=O)NCc3ccccc3F)C2)c1O (stereo not given) | -4% | -1%
O=C(Nc1ccc(S(=O)(=O)Nc2cnc3ccccc3n2)cc1)c1cccc(OC(F)F)c1 | -5% | -11%
CCOc1cccc(C(=O)Nc2nnc(-c3ccco3)s2)c1 | -7% | nt
CCOc1ccc(CCNC(=O)CCC(=O)N2CCOc3ccc(C)cc32)cc1OCC | -13% | i
Cn1c(O)c(C=Nc2ccc(Cl)cc2)c(=O)n(C)c1=O | -5% | -15%
COc1ccc(C2=CC(c3ccc(N(C)C)cc3)n3nnnc3N2)cc1 (stereo not given) | 8% | -2%
O=C(C[C@H]1C/C=C\CCC(=O)O[C@@H](c2ccccc2)CNC1=O)NCCO | -9% | i
NC(=O)C1CCN(C2CC(=O)NC2=O)CC1 (stereo not given) | -5% | i
COC(=O)Nc1nc(-c2ccccc2)c(C(=O)c2ccccc2)s1 | ? | nt
COc1cccc(/C=C2\Oc3cc(OCC(=O)N4CCCCC4)ccc3C2=O)c1OC | -19% | ?
Cc1nn(-c2ccccc2)c(NC(=O)c2cccs2)c(-c2ccccc2)c1=O | -9% | -3%
CCOC(=O)C(=O)N/N=C/c1ccc(F)cc1 | -1%[7.34 µM] | -26%[7.34 µM]
O=C1OCC2=C1C(c1ccccc1)CC(=O)N2c1ccccc1 (stereo not given) | -4% | i
COc1cc2c(cc1OC)C(COc1ccc3c(C)cc(=O)oc3c1)N(C(=O)c1ccccc1F)CC2 (stereo not given) | 3% | -3%
Cc1ccc(CSC2=Nc3ccccc3C3=NC(CCC(=O)NCc4cccs4)C(=O)N23)c(C)c1 (stereo not given) | -17% | -14%
Cc1cccc2cc(/C=N/NC(=O)CN3CCOCC3)c(Cl)nc12 | 2% | -6%
C=C1CC2C(CCC3(C)C2CCC3(O)C(C)=O)C2(C)CCC(=O)C=C12 (stereo not given) | ? | -12%
CCn1c(=O)c2c(nc3n2CCCN3CCc2ccc(OC)c(OC)c2)n(C)c1=O | -1% | -7%
O=C(COC(=O)C12CC3CC(CC(C3)C1)C2)NCCc1ccccc1 | -2% | -9%
Cn1cc(Br)c(C(=O)n2cc(Br)cn2)n1 | 7% | i
COc1cc(OC)cc(C(=O)NNC(=S)Nc2ccc(S(N)(=O)=O)cc2)c1 | -21% | -23%
O=C(CCc1nnc2ccc(N3CCC4(CC3)OCCO4)nn12)Nc1cc(F)ccc1F | 5% | -8%
Cc1cc(C)cc(NC(=O)CSc2nc3c(oc4ccccc43)c(=O)n2-c2ccccc2)c1 | -17% | i
Cc1ccccc1NC(=O)Cc1nnc(N)s1 | -10% | i
N#CC(c1ccncc1)(c1ncc(C(F)(F)F)cc1Cl)N1CCOCC1 (stereo not given) | -19% | ?
CCOc1ccc(C(=O)NCC(=O)NCC2CCCCC2)cc1OCC | -5% | -12%
O=C(Cn1c(C(=O)OCCO)cc2ccccc21)c1ccccc1 | -9% | -26%
CC(=O)c1c(O)c2ccccc2n(C(C)C)c1=O | 6% | -15%
CCCc1cc(=O)[nH]c(Nc2cc(C)cc(C)c2)n1 | -11% | -15%
C[C@H](CO)N1C[C@H](C)[C@@H](CN(C)Cc2ccc(-c3ccccc3)cc2)Oc2c(NC(=O)c3ccncc3)cccc2C1=O | ? | -2%
CC(=O)N(Cc1nc2sc(C)c(C)c2c(=O)[nH]1)C1CCCC1 | -8% | i
O=C(N/N=C/c1ccco1)c1cccc(N2Cc3ccccc3C2)c1 | 2% | 4%
CCCCc1cc(=O)oc2cc(OS(C)(=O)=O)ccc12 | -5% | -23%
COc1ccc([C@H]2CC(=O)C=C(c3cccc4c3Oc3ccccc3S4)C2)cc1 | -25% | ?
O=C(NCCNC(=O)c1ccc(-c2ccc(Cl)c(Cl)c2)o1)c1cnccn1 | -11% | -8%
COc1ccc(N2CCN(C(=O)CCC(=O)N3CCOc4ccc(C)cc43)CC2)cc1 | -23% | -26%
CCOc1ccccc1N(CC(=O)Nc1cccnc1)S(C)(=O)=O | -4% | -6%
COc1ccc(C2CC(=O)c3c(O)cc(O[C@H]4OC(COC5OC(C)C(O)C(O)[C@@H]5O)C(O)C(O)C4O)cc3O2)cc1O (stereo not given in full) | 0% | 0%
O=C(Cc1ccccc1F)Nc1ccccc1-c1ccccc1 | -17% | i
C/C(COc1ccccc1)=N\NC(=O)c1nnn(-c2nonc2N)c1CSc1ccc(C)cc1 | -21% | -25%
(list continues)
SMILES | VACV Venus inh | VACV mCherry inh
O=C(CCCN1C(=O)c2cccnc2C1=O)Nc1ccc(F)cc1Cl | 3% | i
COc1cc(NC(=O)c2ccc(Cl)cc2Cl)ccc1NC(=O)c1cccs1 | -4% | 17%
O=C(NCc1ccccc1Cl)c1nnc(Cc2cccc(F)c2)o1 | -8% | -3%
O=[N+]([O-])c1ccc(S(=O)(=O)N2CCN(c3nc(-c4ccccc4)nc4ccccc34)CC2)cc1 | -14% | -2%
CC1CCN(c2c(NCC3CCC(C(=O)NCc4ccccc4Cl)CC3)c(=O)c2=O)CC1 (stereo not given) | -6% | 28%
CCOc1ccccc1-n1c(C)nc2cc(C(=O)O)ccc21 | -12%&-1% | -4%&-5%
COc1ccc(CN(C)CC(=O)Nc2ccc(SC(F)F)cc2)cc1OC | -17% | -19%
Cc1ccc(C(=O)NCC(=O)OCC(=O)Nc2cc(S(=O)(=O)N3CCOCC3)ccc2C)cc1 | -6% | -13%
O=C(COC(=O)Cn1cnc2ccccc21)Nc1cccc2c1C(=O)c1ccccc1C2=O | 7% | 3%
O=c1ccc2ccc(Oc3ccc([N+](=O)[O-])cc3Cl)cc2o1 | -22% | -24%
NC(=S)N/N=C1\CCOc2ccc(F)cc21 | 0.89µM* | 1.8µM*
Cc1nn(-c2ccccc2)nc1C(N)=O | -12% | i
CCc1nnc(NC(=O)CSc2ncnc3c2oc2ccccc23)s1 | -30% | -15%
CCOC(=O)CNC(=O)c1cc(-c2ccccn2)nc2c(C)c(Cl)ccc12 | 0% | -6%
COc1ccccc1/C=C/C=N/NC(=O)c1ccccn1 | -9% | i
CCOc1ncccc1C(=O)Nc1ccc(S(=O)(=O)Nc2nccs2)cc1 | -21% | -19%
Cc1ccnc(NC(=O)C2CCC(CNc3c(N4CCCC4)c(=O)c3=O)CC2)c1 (stereo not given) | -22% | -7%
CN1CCN(S(=O)(=O)c2cccc(C(=O)Nc3cccc(S(N)(=O)=O)c3)c2)CC1 | 10% | 0%
O=C(COCC(=O)NCc1ccccc1)NCc1ccccc1 | -2% | i
COc1ccc(CNC(=O)c2ccc(NC(=O)CC3SC(N4CCCCC4)=NC3=O)cc2)cc1 (stereo not given) | -28% | nt
Cc1cc(C(=O)NNC(=O)c2ccc(C)s2)c(C)o1 | -10% | -10%
CSc1ccc(Cl)c(C(=O)Nc2ccc(Cl)cn2)c1 | -13% | -13%
O=C(Cc1csc(-c2ccccc2)n1)NCc1cccs1 | -14% | i
NNS(=O)(=O)c1ccc2c(c1)Cc1cc(S(=O)(=O)NN)ccc1-2 | -4% | -10%
O=S(=O)(NCc1ccccc1)c1ccc2[nH]c3c(c2c1)CCCCC3 | -19% | -12%
Cc1ccc(-c2cc(C(=O)Nc3cc([N+](=O)[O-])ccc3C)no2)cc1F | -1% | 1%

Grouped by structure, those above with a Cl atom.
SMILES | VACV Venus inh | VACV mCherry inh
CCCCCNCc1ccc(OCc2ccc(Cl)nc2)c(OC)c1 | -16% | -12%
Clc1cc2c(cc1/C=N/Nc1nc(N3CCOCC3)nc(N3CCOCC3)n1)OCO2 | -9% | 0%
O=S(=O)(NCCc1nnc2ccc(SCc3ccccc3Cl)nn12)c1ccccc1 | -17% | -15%
CCCCNC(=O)c1nc(-c2cccs2)oc1-c1ccc(Cl)cc1 | -2% | i
O=C(/C=C/c1ccc(Cl)cc1)Nc1nc(-c2cccs2)ns1 | -29% | -19%
Cn1c(O)c(C=Nc2ccc(Cl)cc2)c(=O)n(C)c1=O | -5% | -15%
Cc1cccc2cc(/C=N/NC(=O)CN3CCOCC3)c(Cl)nc12 | 2% | -6%
N#CC(c1ccncc1)(c1ncc(C(F)(F)F)cc1Cl)N1CCOCC1 (stereo not given) | -19% | ?
O=C(NCCNC(=O)c1ccc(-c2ccc(Cl)c(Cl)c2)o1)c1cnccn1 | -11% | -8%
O=C(CCCN1C(=O)c2cccnc2C1=O)Nc1ccc(F)cc1Cl | 3% | i
COc1cc(NC(=O)c2ccc(Cl)cc2Cl)ccc1NC(=O)c1cccs1 | -4% | 17%
O=C(NCc1ccccc1Cl)c1nnc(Cc2cccc(F)c2)o1 | -8% | -3%
CC1CCN(c2c(NCC3CCC(C(=O)NCc4ccccc4Cl)CC3)c(=O)c2=O)CC1 (stereo not given) | -6% | 28%
O=c1ccc2ccc(Oc3ccc([N+](=O)[O-])cc3Cl)cc2o1 | -22% | -24%
CCOC(=O)CNC(=O)c1cc(-c2ccccn2)nc2c(C)c(Cl)ccc12 | 0% | -6%
CSc1ccc(Cl)c(C(=O)Nc2ccc(Cl)cn2)c1 | -13% | -13%
